RanGTP-Impb inh: inhibitors of RanGTP-importin-beta interaction, primary screen, biochemical, FRET, CFP-Ran, YFP-importin-beta, homogeneous. cell-free CFP-Ran/YFP-importin-beta FRET ratio. inhibition, % (test concentration not listed). actives 1.1% (n = 300,000);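 active = most replicates above 15%; inconclusive = exactly half above 15%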;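 note: 0% = DMSO wells and 100% = Ran loaded with GDP instead of GTP; wells of about 40 µL received 100 nL stock; the first replicate is given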
Beta cell apopt: blocks beta cell apoptosis | protection from apoptosis, % (test concentration not listed) | INS-1E cytokine-induced death, ATP luminescence, 48 h; percent of positive-control rescue, neutral wells zero | AID 435005 | actives 0.8% (n = 300,000);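 active = all replicates at 75% or more, or half of them and the mean; inconclusive = half reach 75% but not the mean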;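 note: 0% = cytokine-treated negative control wells and 100% = positive control rescue; higher means more ATP so stronger rescue from cytokine killing; wells of about 40 µL received 100 nL stock; the first replicate is given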
Bfl-1 A1 inh: inhibitors of the anti-apoptotic protein A1, read as caspase activation. actives 0.066% (n = 330,000). caspase activation, % (no concentration beside the values). MEF A1-2A-BIM cells, Caspase-Glo 3/7 luminescence, 3 h; percent of clofoctol response, vehicle zero;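 active = over half of replicate activation scores above 10%, or exactly half above 10 with the replicate mean above 10; inconclusive = replicate mean below 10 yet half the replicates above 10; inactive = over half of replicates below 10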;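 note: wells of about 30 µL received 50 nL stock; many hits fall short of the cut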
LANA-H2B inh: blocks KSHV LANA binding to histone H2A/H2B | Q9QR71 | cell-free LANA-H2A/H2B peptide, fluorescence polarization | inhibition, % (no concentration beside the values) | actives 0.6% (n = 320,000); in the data active = inhibition mostly above about 10%, no sharp cut-off; inactive = mostly below about 6.7%;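 note: stock transfer was 7.5 nL into about 10 µL; 0% = median of vehicle wells and 100% = median of positive control wells; one replicate is shown; the record names a cut of 25% in any replicate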
Target sequence (Q9QR71 whole entry, looked up): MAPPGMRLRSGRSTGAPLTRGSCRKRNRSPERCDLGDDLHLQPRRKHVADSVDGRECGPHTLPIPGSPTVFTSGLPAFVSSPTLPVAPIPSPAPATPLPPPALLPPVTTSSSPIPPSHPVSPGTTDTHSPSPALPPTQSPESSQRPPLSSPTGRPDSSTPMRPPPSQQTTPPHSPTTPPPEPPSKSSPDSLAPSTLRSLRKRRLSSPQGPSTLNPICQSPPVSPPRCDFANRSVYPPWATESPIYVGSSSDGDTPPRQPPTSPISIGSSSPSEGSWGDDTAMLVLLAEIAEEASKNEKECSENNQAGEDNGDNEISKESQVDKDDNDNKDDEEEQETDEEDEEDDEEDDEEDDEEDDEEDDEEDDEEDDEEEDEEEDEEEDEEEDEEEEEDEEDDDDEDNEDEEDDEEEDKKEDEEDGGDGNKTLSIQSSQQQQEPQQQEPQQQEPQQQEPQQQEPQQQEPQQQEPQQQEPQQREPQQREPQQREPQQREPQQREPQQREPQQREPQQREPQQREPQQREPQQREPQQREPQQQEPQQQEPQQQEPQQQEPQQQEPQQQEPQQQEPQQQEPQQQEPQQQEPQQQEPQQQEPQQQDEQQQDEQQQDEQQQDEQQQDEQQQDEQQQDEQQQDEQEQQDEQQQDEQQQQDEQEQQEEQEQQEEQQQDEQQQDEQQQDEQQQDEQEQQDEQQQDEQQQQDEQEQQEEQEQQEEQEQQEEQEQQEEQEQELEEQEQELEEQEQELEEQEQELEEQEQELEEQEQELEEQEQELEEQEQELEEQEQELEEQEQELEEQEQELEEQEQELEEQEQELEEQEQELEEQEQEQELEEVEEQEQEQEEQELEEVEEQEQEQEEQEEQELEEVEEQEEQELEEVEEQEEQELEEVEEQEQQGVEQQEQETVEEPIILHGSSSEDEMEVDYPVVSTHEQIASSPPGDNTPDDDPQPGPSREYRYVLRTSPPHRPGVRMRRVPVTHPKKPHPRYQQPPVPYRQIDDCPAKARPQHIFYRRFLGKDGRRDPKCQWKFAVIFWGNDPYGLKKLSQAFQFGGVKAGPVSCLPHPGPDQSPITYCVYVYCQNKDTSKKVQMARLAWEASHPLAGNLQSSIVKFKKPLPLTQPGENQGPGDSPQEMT
MLL AF4-AF9 inh: MLL-AF4/AF9 protein interaction inhibition. P42568. AlphaScreen, biotin-AF4 peptide binding to FLAG-AF9. inhibition, % at 10 µM. actives 0.47% (n = 350,000). AID 651704;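 active = every replicate reaching a set inhibition limit, whatever the replicate mean, cut at about 25% in these data; inconclusive = mean inhibition reaches that limit but some replicates miss it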;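 note: 0% = plate neutral control median and 100% = total signal loss; the record names both 10 and 1 µM as test concentration; the first replicate is given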
T cruzi inh: blocks replication of Trypanosoma cruzi; T. cruzi beta-gal in NIH3T3, luminescence, 90 h; inhibition, % (no concentration beside the values); actives 1.4% (n = 300,000); AID 1885;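 active = mean inhibition across valid replicates above about 55%, limit read from the data; inconclusive = mean below that limit but half or more replicates reach it; inactive = mean below it, under half of replicates reach it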;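 note: signal also drops with host cell toxicity which is not excluded here; 0% = plate median of DMSO wells and 100% = zero luminescence signal; higher percent means less beta-gal luminescence so fewer parasites; stock transfer was 50 nL into about 50 µL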
Calb FLC: C. albicans growth modulation with fluconazole; C. albicans CaCi-2 (fluconazole-resistant clinical isolate) + fluconazole, Alamar Blue growth, 48 h; growth inhibition, % (concentration not given with the values); actives 0.57% (n = 300,000);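 active = most replicates above 75%; inconclusive = exactly half above 75%; inactive = most below 75%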;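 note: all wells also contain fluconazole at 8 µg/ml as a sub-toxic cotreatment; 0% = median of DMSO wells and 100% = median of geldanamycin control wells; wells of about 8 µL received 7.5 nL stock; the first replicate is given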
Vif A3G: inhibitors of Vif binding to APOBEC3G peptide, primary screen, biochemical, TR-FRET, GST-Vif 1-94, biotin-A3G peptide, dose response retest (AID 1117319); one-dose inhibition, %; IC50 in µM for titrated hits; actives 0.57% (n = 260,000); TR-FRET GST-Vif / biotin-A3G peptide binding; higher % means a stronger effect; test concentration not given here; strong numbers were not always called active;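 active = above the screen mean plus three standard deviations and confirmed in dose response; inconclusive = results disagree or hit not tested in dose response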;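 note: Vif residues 1-94 fused to GST binding biotinylated APOBEC3G peptide 110-148; 0% = full assay without inhibitor and 100% = GST in place of GST-Vif; retest series ran down from 100 µM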
Starred values were filed as active, the others as inactive; u = inconclusive; x = no result given.

SMILES	RanGTP-Impb inh	Beta cell apopt	Bfl-1 A1 inh	LANA-H2B inh	MLL AF4-AF9 inh	T cruzi inh	Calb FLC	Vif A3G
O=C(c1cccc([N+](=O)[O-])c1)N1CCN(c2ccccn2)CC1	-6.2	x	0.5	-4.3	-5.8	1	-5	6%
O=C(O)Cc1ccc(N=Nc2c(O)c(C(=O)O)cc3ccccc23)cc1	-6.8	3	0.4	-11	6.1	-7	28	11µM*
N#C/C(=C\c1ccccc1)C(=O)NCc1ccc(F)cc1	0.6	-12	-0.9	1.7	1.7	-3	-12	x
COc1cc(NC(=O)Nc2cccc(C(C)=O)c2)cc(OC)c1OC	u	1	-0.6	2.8	x	-4	13	0%
O=C(CSCc1ccc(Cl)cc1)NCCSCc1ccco1	1.3	-6	1.1	3.1	5.9	0	-11	15%
COC(=O)c1c(C)oc(C)c1S(=O)(=O)N1CCCC1	-1.6	-6	-0.5	2.2	-3.0	-8	0	-5%
CCOc1ccc(NC(=O)c2nn(-c3ccc(OC)cc3OC)c(=O)c3ccccc23)cc1	-2.8	-9	0.0	3.9	-1.2	7	0	-8%
O=C(COc1cccc(NC(=O)c2ccco2)c1)c1ccccc1	-0.4	1	-2.3	2.5	x	-1	-8	u
COc1ccccc1N1C(=O)S/C(=C\c2cc(C)n(C)c2C)C1=O	0.5	8	-0.5	-5.0	3.4	-6	-26	x
O=C(NCSc1ccnc(SCNC(=O)c2ccc(F)cc2)n1)c1ccc(F)cc1	-1.2	-5	0.2	-0.5	x	-4	15	2%
CN(NC(=O)NN)c1ncc(C(F)(F)F)cc1Cl	0.4	x	-0.1	-2.9	x	2	-3	0%
COc1ccc(NC(=O)CCN2CCCCC2)cc1	-0.8	-2	1.6	-0.2	u	4	9	-3%
Cc1ccc(CNc2ncnc(N)c2[N+](=O)[O-])cc1	-0.4	-2	-2.0	2.5	-2.1	-2	-1	-5%
CCC1CCCCN1CCCNC(=O)c1ccc2c(c1)N(Cc1c(F)cccc1Cl)C(=O)CS2 (stereo not drawn)	-0.4	6	0.4	-0.8	8.9	42	-4	x
Cc1cc(Cl)ccc1OC(C)C(=O)Nc1ccc([N+](=O)[O-])cn1 (stereo not drawn)	-0.2	-4	-0.2	-0.8	x	7	-33	u
NC(=O)c1ncn([C@@H]2O[C@H](CO)[C@@H](O)[C@H]2O)c1O	1.1	x	1.2	-20	-12	-30	-6	x
COc1ccc(NC(=O)c2ccc3ccccc3c2OC)cc1	-1.1	-2	-2.9	-6.8	-4.4	-15	1	x
Cc1cccc(N2CCN(C(=O)NCc3ccc(F)cc3)CC2)c1C	2.7	2	1.3	-0.5	-2.2	4	3	-15%
CC(=O)N1CCc2cc(S(=O)(=O)CCC(=O)Nc3ccccc3F)ccc21	-0.2	-7	0.2	0.7	-0.2	-12	5	10%
O=C(NCc1ccccn1)C1CC(c2ccccc2Cl)=NO1 (stereo not drawn)	-2.2	7	0.2	-1.1	1.2	-8	22	x
O=C(Nc1ccc2nc3ccccc3nc2c1)c1ccc(Br)cc1	-81	3	0.2	-6.4	x	0	0	x
Cc1cccnc1CCNC(=O)CC1C(=O)NCCN1CC1CCCCC1 (stereo not drawn)	5.6	1	-0.5	-4.8	3.2	12	3	-6%
O=C(O)c1ccc(S(=O)(=O)N(CCc2ccccc2)Cc2ccc(Cl)cc2)cc1	-3.2	-2	0.7	1.9	0.9	2	61	-5%
CCOC(=O)C1=C(CS(=O)(=O)c2ccccc2)NC(=O)NC1c1ccccc1OC (stereo not drawn)	-1.0	-7	-2.0	1.7	3.5	-2	-4	x
CC(=O)N1CCN(C2c3cccc4cccc(c34)C2NS(=O)(=O)c2ccccc2)CC1 (stereo not drawn)	-2.5	0	3.1	1.4	x	9	5	-4%
O=[N+]([O-])c1ccccc1OCCN1CCCC1	-0.3	-1	-2.5	-8.5	1.0	3	-5	x
CCNC(=S)NCc1ccco1	3.7	-6	-0.1	-1.3	x	-14	-1	x
O=C(O)CCCC(=O)Nc1ccc(Sc2ccc([N+](=O)[O-])cc2)cc1	1.7	-5	-0.8	-2.0	x	-3	10	3%
C=CCn1c(Cc2ccccc2)n[nH]c1=S	7.1	-8	0.3	2.6	-5.3	-8	16	x
CCCCn1c(N)c(N(CC(C)C)C(=O)C2CCN(S(=O)(=O)c3ccc(C)cc3)CC2)c(=O)[nH]c1=O	7.5	x	1.2	0.9	-4.0	-1	7	-2%
O=C(CCNC(=O)c1ccccc1Cl)NCc1cccnc1	-0.3	-3	-0.2	4.6	1.2	-8	-8	3%
CCOC(=O)CCSCC(=O)Nc1cc(C)on1	3.2	-5	2.3	-5.0	x	-9	2	-5%
O=C(CCc1[nH]c2ccccc2c1Sc1ccccc1)NCCO	7.4	-2	2.1	1.5	x	-2	18	-7%
O=c1c2ccccc2nc(SCc2ccccc2F)n1C1CCCC1	-0.7	6	0.4	2.5	-0.1	23	-11	x
CCOC(=O)c1nn(-c2ccc(C)cc2)c(=O)c2c(N)scc12	-1.6	-2	-0.8	-2.6	x	8	-10	2%
COc1ccc(C2N=C(N)N=C(N)N2c2ccc(C)cc2)cc1 (stereo not drawn)	4.8	-18	-0.8	-2.8	x	3	-3	-13%
Cc1ccc(CN2CCC(N3CCC(C(=O)NCC4CCCO4)CC3)CC2)o1 (stereo not drawn)	2.3	-6	0.1	1.4	0.7	-3	21	-9%
O=C(O)CC(NS(=O)(=O)c1ccc(Br)cc1)c1ccco1 (stereo not drawn)	2.7	1	0.2	9.2	x	-12	-1	7%
CCCCn1c(N)c(N(CC)C(=O)C2=NN(c3ccccc3)C(=O)CC2)c(=O)[nH]c1=O	x	-9	-0.6	0.8	-3.8	x	x	x
O=C(CN1C(=O)NC2(CCCC2)C1=O)Nc1cc(C(F)(F)F)ccc1N1CCOCC1	x	2	0.0	-2.1	-1.1	x	x	-4%

Grouped by structure: those above containing bromine (two)
SMILES	RanGTP-Impb inh	Beta cell apopt	Bfl-1 A1 inh	LANA-H2B inh	MLL AF4-AF9 inh	T cruzi inh	Calb FLC	Vif A3G
O=C(Nc1ccc2nc3ccccc3nc2c1)c1ccc(Br)cc1	-81	3	0.2	-6.4	x	0	0	x
O=C(O)CC(NS(=O)(=O)c1ccc(Br)cc1)c1ccco1 (stereo not drawn)	2.7	1	0.2	9.2	x	-12	-1	7%

The results go on.
SMILES	RanGTP-Impb inh	Beta cell apopt	Bfl-1 A1 inh	LANA-H2B inh	MLL AF4-AF9 inh	T cruzi inh	Calb FLC	Vif A3G
O=C(O)c1cccc(N/N=C/c2ccc(F)c(F)c2)c1	11	-5	-6.1	7.1	1.4	8	-1	x
O=C(OCc1nnc(-c2ccc([N+](=O)[O-])cc2)o1)C1CC(=O)N(CCc2ccccc2)C1 (stereo not drawn)	x	3	-0.4	0.9	1.6	x	x	-10%
CC(C)=NNC(=O)CN1C(=O)NC2NC(=O)NC21 (stereo not drawn)	-2.5	-2	0.4	x	-3.1	-5	20	x
Cc1c(CC(=O)O)c(=O)oc2c(C)c(OCc3ccccc3)ccc12	-4.1	-3	1.2	0.6	-3.5	-3	-1	-7%
Cc1ccc(C(=O)NC(=S)Nc2ccc(CN3CCCCC3)cc2)c(C)c1	-2.4	1	0.4	0.6	7.2	60*	6	4%
Cc1cc(C(F)(F)F)n2nc(C)c(-c3ccc(Cl)cc3)c2n1	1.1	0	0.5	-4.7	0.3	23	2	0%
Cc1ccc(C(C(=O)NCc2ccccc2)N(C(=O)c2ccccn2)c2ccccc2)o1 (stereo not drawn)	1.6	0	-1.0	0.2	0.4	5	5	x
CCOc1ccccc1NC(=O)Cn1ncc2ccc([N+](=O)[O-])cc21	2.4	-4	0.2	-0.3	4.4	11	x	-2%
COC(=O)c1c(S(=O)(=O)NCc2ccccc2)sc(C(=O)O)c1C	0.5	-3	0.0	6.6	x	0	-6	9%
CCn1cc(C(=O)NCC(OC)OC)c(=O)c2cc(S(=O)(=O)N3CCOCC3)ccc21	0.6	1	-0.1	2.0	1.2	-11	-5	x
CCOC(=O)c1cc(-c2ccc(OC)cc2F)nc2c1c(C)nn2CCC#N	-3.5	6	-0.1	0.7	x	14	3	15%
COc1ccc(C(CNC(=O)c2sccc2C)N2CCOCC2)cc1 (stereo not drawn)	1.4	-1	0.1	-8.1	-0.7	-15	-8	-1%
COc1ccc(OC)c(N(CC(=O)NCc2cccnc2)S(C)(=O)=O)c1	0.6	-2	1.1	-0.4	x	-10	-5	u
CNC(=O)COC(=O)c1nc(-n2nc(C)cc2C)ccc1Cl	0.6	-8	-0.2	-2.9	x	-11	-2	-4%
CC(=O)N1CC2(c3ccccc3)CN(C(C)=O)CC(c3ccccc3)(C1)C2=O	-2.8	-6	-0.5	2.1	-1.9	21	1	-2%
CC(Oc1cccc(Cl)c1)C(=O)NCc1ccc(S(N)(=O)=O)cc1 (stereo not drawn)	-0.8	4	0.0	-1.8	-2.4	5	2	8%
Cc1cc(/C=C2\NC(=S)N(C)C2=O)ccc1N1CCCC1	6.8	6	-1.7	-11	5.8	14	16	-1%
COCC(=O)N(C)c1nnc(-c2ccc([N+](=O)[O-])cc2)s1	2.5	-1	0.6	-1.6	4.4	-2	8	-1%
Cc1ccccc1NC(=O)COC(=O)c1ccc(S(C)(=O)=O)c([N+](=O)[O-])c1	-4.4	-19	0.5	1.6	-1.1	-7	u	11%
CCOc1ccccc1C(=O)N1CCC(n2nnc3cc(C)ccc32)CC1	-3.8	-8	1.4	0.2	x	14	-7	-1%
COc1ccc(S(=O)(=O)NCCCc2ccccc2)cc1	-4.5	-9	-0.3	2.7	-11	11	-3	x
CC1CCN(c2c(NCC3CCC(C(=O)NCCc4ccc(Cl)cc4)CC3)c(=O)c2=O)CC1 (stereo not drawn)	2.8	14	0.7	4.8	9.2	3	0	-6%
COc1ccc(-c2[nH]c(-c3ccccc3)nc2SCC(=O)NCc2ccco2)cc1OC	-3.0	3	0.3	-1.8	-5.3	-10	4	-1%
COc1ccc(S(=O)(=O)N2c3ccccc3OCC2C)cc1 (stereo not drawn)	0.2	26	1.1	-11	-15	-28	8	-2%
O=C(c1ccc(Cl)c(S(=O)(=O)N2CCCCC2)c1)N1CCN(c2ccccc2)CC1	-2.6	7	-0.3	1.1	3.2	18	-3	x
CCn1c(SCC(=O)Nc2ccc(-c3nc4ccc(C)cc4s3)cc2)nnc1-c1ccccc1	1.0	2	0.2	-1.8	x	3	0	1%
O=C(NNS(=O)(=O)c1ccc(F)cc1)c1sccc1-n1cccc1	0.6	-6	-0.5	2.2	-0.4	10	-1	-15%
COC(=O)C1=C(C)N(CC2CC2)C(=O)N[C@H]1c1ccccc1	2.6	-1	0.1	-2.9	-5.9	-16	2	x
Cc1ccc(CCN2CC(C(=O)NCCCN3CCOCC3)CC2=O)cc1 (stereo not drawn)	0.4	-8	0.1	-3.5	x	5	3	25%
CC1CCN(S(=O)(=O)c2nnc(NC(=O)COc3ccccc3)s2)CC1	0.5	-3	-0.2	2.0	-11	2	-9	x
O=C(COc1cccnc1[N+](=O)[O-])NCCc1ccc(Cl)cc1	-0.8	-1	0.7	0.9	2.6	-10	7	x

Compound activity as filed in PubChem.
